# Mtb bLac sens = beta-lactam sensitization of Mtb H37Rv, H37Rv; M. tuberculosis H37Rv growth with meropenem, percent inhibition; hits of this screen are not shown here; inhibition, % at 25 µM; hit rate 0.27% among 330,000;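 active = about 74% or more and at least 40 points above the plate without the antibiotic, then above 30% in a dose series; inconclusive = first-round hits that could not be retested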;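 also: growth measured after seven days incubation then overnight dye step; 0% = bacteria only wells and 100% = bacteria with antibiotic; twin plates without the antibiotic show which effects depend on it; some results filed as inactive read as strong as hits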
# RecA intein inh = Mtb RecA intein splicing inhibitors, primary screen, biochemical, fluorescence, HTS; cell-free RecA intein splicing; inhibition, %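 (about 9 µM by stock and volumes)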; hit rate 0.75% among 290,000; in the data active = inhibition above about 30%; inconclusive = no clear call, values can overlap the other calls;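 also: 0% = vehicle wells and 100% = reference inhibitor control wells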
# Target sequence (P9WHJ3 whole entry, looked up): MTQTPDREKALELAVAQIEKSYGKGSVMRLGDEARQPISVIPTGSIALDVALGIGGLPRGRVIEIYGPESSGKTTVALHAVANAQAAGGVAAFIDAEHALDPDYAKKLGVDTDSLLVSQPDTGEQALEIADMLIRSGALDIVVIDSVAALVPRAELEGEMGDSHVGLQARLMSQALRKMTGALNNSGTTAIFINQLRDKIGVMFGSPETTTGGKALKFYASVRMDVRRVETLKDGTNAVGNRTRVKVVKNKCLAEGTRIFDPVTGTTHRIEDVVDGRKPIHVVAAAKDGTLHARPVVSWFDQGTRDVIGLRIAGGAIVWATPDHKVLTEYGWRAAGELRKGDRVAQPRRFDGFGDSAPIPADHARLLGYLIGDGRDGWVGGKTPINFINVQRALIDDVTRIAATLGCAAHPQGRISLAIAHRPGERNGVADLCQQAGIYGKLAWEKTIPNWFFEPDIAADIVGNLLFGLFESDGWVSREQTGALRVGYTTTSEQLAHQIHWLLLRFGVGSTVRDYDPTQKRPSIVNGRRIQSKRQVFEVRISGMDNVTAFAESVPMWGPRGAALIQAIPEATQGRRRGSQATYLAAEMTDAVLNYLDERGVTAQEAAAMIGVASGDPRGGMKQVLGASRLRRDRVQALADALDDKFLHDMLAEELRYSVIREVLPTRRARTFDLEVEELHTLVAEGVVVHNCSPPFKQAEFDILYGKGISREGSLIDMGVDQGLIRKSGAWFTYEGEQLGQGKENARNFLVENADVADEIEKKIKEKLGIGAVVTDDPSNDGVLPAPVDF
# Arbovirus inh = antivirals against arbovirus infection, primary screen, cell-based, full library, 10K replicate subset. arbovirus infection cell-based antiviral screen. inhibition, % at 10 µM. hit rate 0.37% among 200,000. AID 1251, 2008;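 active = inhibition from about 30%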;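 also: bluetongue infection of BSR cells; cell survival read as ATP light after 72 h; 0% = infected wells without compound and 100% = uninfected wells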
# YopH PTP inh = YopH tyrosine phosphatase inhibitors, primary screen, biochemical, fluorescence Ex485/Em525 | inhibition, %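 (about 10 µM by stock and volumes)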 | YopH tyrosine phosphatase [Yersinia enterocolitica] | hit rate 0.16% among 140,000;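 active = inhibition of 50% or more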;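 also: controls were vehicle for no effect and minimum signal wells for full effect; inactives centre near -20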
# Mtb growth = M. tuberculosis H37Rv growth inhibitors, H37Rv strain (AID 1626). inhibition, % at 10 µM; hits with a dose series show IC50 in µM. hit rate 0.95% among 220,000. M. tuberculosis H37Rv growth inhibition; higher % means a stronger effect;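 active = confirmed in a dose series; inconclusive = inhibition above 80% but not taken into the dose series; inactive = below 80% or under 30% at every dose of the series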;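 also: bacteria incubated seven days before Alamar blue readout; 0% = bacteria only wells and 100% = bacteria with antibiotic wells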
# Arbovirus inh repeat = also measured in Arbovirus inh; calls as there; inhibition, %; measured here: 10K subset replicate screen; many hits read low in the repeat;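 first of two repeat runs on a subset; 0% = infected and 100% = uninfected wells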
# Numbers without * were called inactive; ? = inconclusive; . = no result given. Not all compounds are listed; count on the stated rates, not on these rows.
SMILES,Mtb bLac sens,RecA intein inh,Arbovirus inh,YopH PTP inh,Mtb growth,others
CCOC(=O)N1CCN(C(=O)CSc2nnc(-c3ccccc3OC)o2)CC1,.,-1.3,2,17,17%,
Cc1ccc(C(=O)N/C(=C/c2ccco2)C(=O)Nc2cccc(C(=O)O)c2)cc1,-11,-2.2,.,.,.,
O=S(=O)(Nc1ccc2c(c1)nc1n2CCN(Cc2ccccc2)C1)c1ccccc1,5,23,3,-12,1%,
O=C(CCCC(=O)N(c1ccc(F)cc1)C(C(=O)NC1CCCC1)c1ccc(O)cc1)Nc1ccccn1 (stereo not given),-4,2.0,.,.,.,
Cc1nc2cc(-c3cccc(F)c3)nn2c(C)c1CCC(=O)N1CCC2(CC1)OCCO2,12,6.1,1,-45,6%,
O=S(=O)(c1cccc(F)c1)N1CCN(C(=S)NCC2CCCO2)CC1 (stereo not given),-18,-1.1,.,.,.,
Cc1ccccc1CN1C(=O)[C@@H]2Cc3c([nH]c4ccccc34)C(C)(C)N2C1=O,8,-0.8,.,.,?,
COC(=O)c1cc(S(=O)(=O)N2CCN(c3ccccc3OC)CC2)cn1C,3,-3.8,.,.,.,
Cc1ccc(C(=O)N2CCCC2)cc1S(=O)(=O)Nc1cccc(C)c1C,-4,5.5,3,.,6%,
Cc1nnc(SCC(=O)Nc2ccc3c(c2)OCCO3)n1N,2,-3.8,-1,-6,-7%,
CCSc1nnc(NC(=O)c2c(-c3ccccc3Cl)noc2C)s1,73,2.3,14,-27,-5%,Arbovirus inh repeat=5
CC(=O)c1cc2c(cc1NC(=O)CN1CCCCCCC1)OCO2,4,1.6,-11,1,-4%,
O=C(OCCN1CCOCC1)c1ccc(Cl)cc1Cl,-5,1.1,.,.,.,
COc1ccc(F)cc1C(=O)C1CCCN(Cc2c[nH]c3ccccc23)C1 (stereo not given),2,2.0,13,.,8%,
COc1ccc(F)cc1C(=O)C1CCCN(C(=O)CCN2CCCCO2)C1 (stereo not given),-1,1.1,5,.,-7%,
CC(=O)N1N=C(c2ccc([N+](=O)[O-])cc2)CC1c1ccccc1Cl (stereo not given),2,7.6,.,.,.,
O=S(=O)(NCC(c1ccco1)N1CCN(c2ccc(F)cc2)CC1)c1ccc2c(c1)OCCO2 (stereo not given),8,-1.7,5,-13,-7%,
CCN(CC(=O)Nc1ccccc1C(F)(F)F)C(=O)C1CCC1,4,-2.6,.,.,.,
CC(=O)c1ccc(N2CCN(C(=O)c3ccc(Cn4c(=S)[nH]c5ccc(N6CCOCC6)cc5c4=O)cc3)CC2)cc1,8,-14,-17,.,6%,
O=C(Nc1nnc(SCc2ccc(Cl)cc2)s1)c1cnccn1,51,6.4,-34,-26,?,
O=C(NCCC(c1ccccc1)c1ccco1)c1cccs1 (stereo not given),-3,2.3,6,.,-4%,
CN1CCCN(C(=O)CSc2ccccc2)CC1,-2,1.7,.,.,.,
CCCCOC(=O)/C(=C\c1ccc([N+](=O)[O-])o1)NC(=O)c1ccccc1,47,-4.2,-8,-23,1%,
Cc1nc2ccccc2nc1OCC(=O)Nc1ccccc1,-7,1.4,7,.,3%,
NC(=O)NNC(=S)Nc1cccc2ccccc12,-11,-1.1,-2,.,2%,
COC(=O)C1=C(C(=O)OC)[C@@H]2N(Cc3ccccc3)c3ccccc3[C@@]23C[C@@H](C(=O)OC)N=C3N1,-6,3.2,.,.,-17%,
C=CCN(C)NC(=S)Nc1ccccc1,-9,0.4,8,-31,2%,
Cc1cc(S(=O)(=O)Nc2cccc(O)c2)c(C)s1,-15,2.2,0,-32,3%,
C=C(C)COc1ccc(-c2ncnc(C(F)(F)F)c2-c2ccccc2)c(O)c1,3,1.3,.,.,.,
Cc1nc2ccccn2c1C(=O)N/N=C/c1ccc(F)cc1,2,-2.2,.,.,.,
CCOC(=O)CC1ON(C)C(=O)N1c1ccc(Cl)cc1Cl (stereo not given),0,0.6,7,-6,9%,
COC(=O)Cn1cnc2c(cnn2-c2ccc(C)cc2)c1=O,6,0.2,.,.,.,
COc1ccccc1NC(=O)CSCc1cc(=O)n2c(C)csc2n1,-8,4.2,.,.,.,
Cc1cc(C)c(C#N)c(SCC(=O)NC2CC2)n1,0,3.2,-1,-35,-2%,
O=C(OCc1cc(=O)n2c(n1)sc1ccccc12)c1ccc(O)cc1O,-10,-6.6,-4,.,-3%,
COc1cc(OC)cc(-c2nnc(SCC(=O)N3CCOCC3)o2)c1,2,-1.2,9,-32,0%,
CCOC(=O)C1(Cc2ccccc2)CCCN(S(=O)(=O)N(C)C)C1 (stereo not given),6,0.0,.,.,.,
CC1CCC(NC(=O)c2ccc(N3CCCC3=O)cc2)CC1 (stereo not given),61,-0.5,-7,-17,-3%,
CCC(=O)N1CCNC(=O)C1CC(=O)Nc1ccc(C)c(Cl)c1 (stereo not given),-4,2.1,-3,-18,-6%,
CC(=C1C(=O)c2ccccc2C1=O)N1CCN(CCN=Cc2c(O)n(C)c(=O)n(C)c2=O)CC1,5,1.2,6,12,-1%,
Cn1ncc(Cl)c1C(=O)N1CCN(c2ccc(F)cc2)CC1,-14,-0.5,.,.,.,
Cc1nc2c(C#N)c(-c3ccc(Cl)cc3)ccn2n1,-2,3.5,-7,.,2%,
CC(=C\c1ccccc1)/C=C1/SC(=O)N(CCCC(=O)Nc2ccc(C(=O)O)cc2)C1=O,1,11,-4,.,-1%,
Cc1nnc(SCCOC(N)=O)n1C,.,-0.1,7,-30,0%,
COc1ccc(CCNC(=O)C2CCN(C(=O)c3ccc(Br)cc3)CC2)cc1OC,-5,0.1,.,.,.,
O=C(Nc1nnc(Cc2ccc([N+](=O)[O-])cc2)s1)c1ccc2c(c1)OCO2,-2,-16,.,.,4%,
O=C(NCCc1ccccc1)c1ccc(NC2=NC3CS(=O)(=O)CC3S2)cc1 (stereo not given),-4,-4.3,13,-44,-8%,
O=[N+]([O-])c1cc(O)c2ncccc2c1,-7,37*,21,.,2.7µM*,

# A run of entries from further up:
SMILES,Mtb bLac sens,RecA intein inh,Arbovirus inh,YopH PTP inh,Mtb growth,others
COc1ccc(CCNC(=O)C2CCN(C(=O)c3ccc(Br)cc3)CC2)cc1OC,-5,0.1,.,.,.,
O=C(Nc1nnc(Cc2ccc([N+](=O)[O-])cc2)s1)c1ccc2c(c1)OCO2,-2,-16,.,.,4%,
O=C(NCCc1ccccc1)c1ccc(NC2=NC3CS(=O)(=O)CC3S2)cc1 (stereo not given),-4,-4.3,13,-44,-8%,
O=[N+]([O-])c1cc(O)c2ncccc2c1,-7,37*,21,.,2.7µM*,

# Remaining list, next part:
SMILES,Mtb bLac sens,RecA intein inh,Arbovirus inh,YopH PTP inh,Mtb growth,others
Cc1cccc(-n2ccnc2SCC(=O)N2CCCc3ccccc32)c1C,5,2.7,13,1,1%,
Cc1[nH]c2ccc(C(=O)Nc3ccncc3)cc2c1C,6,1.8,.,.,.,
NC(=O)CSc1nnc(NC(=O)c2cccc(S(=O)(=O)N3CCCCC3)c2)s1,3,0.6,0,.,-2%,
COc1ccc(CC(=O)NCc2ccco2)cc1OC,5,-1.1,1,-15,3%,
O=C(CN1CCCCC1)Nc1cc(Cl)ccc1Cl,3,1.9,1,-2,-3%,
CC1C/C(=N/Nc2ccc([N+](=O)[O-])cc2[N+](=O)[O-])CC(C)(C)C1 (stereo not given),14,9.0,1,-18,0%,
O=C1c2ccc3c4c(ccc(c24)C(=O)N1c1ccc2ccccc2c1)CC3,3,0.7,-18,-15,-12%,
COc1ccc(NC(=O)c2ccc(Cc3ccc(C)cc3)o2)cc1,4,9.2,-29,-22,-7%,
O=C1CCCC2=C1C(c1ccc(O)cc1)c1c(ccc3ccccc13)N2 (stereo not given),1,-83,11,.,7%,
Cc1ccc(C2=NC3(CCCCC3)N=C2SCC(=O)Nc2ccc3c(c2)OCCO3)cc1,6,8.0,6,-35,.,
CC(Sc1nnc(-c2ccccc2F)n1N)C(=O)NCC1CCCO1 (stereo not given),-5,0.0,.,.,.,
Cc1cc(=O)oc2cc(OCC(=O)N/N=C/c3cc([N+](=O)[O-])ccc3O)ccc12,-5,-2.1,-12,-3,-2%,
CN1C(=O)N(C)C(=O)C2(Cc3cc([N+](=O)[O-])ccc3N(C)C2c2ccccc2)C1=O (stereo not given),-3,0.9,21,-14,-13%,
Cc1ccc2nsnc2c1NC(=O)COc1ccccc1,-5,2.7,0,.,7%,
C=CCn1cnc2scc(-c3ccc(C)cc3)c2c1=O,2,3.6,-9,-13,6%,
CCC(C)NC(=O)C(Cc1ccccc1)n1cccc1 (stereo not given),1,-0.2,4,-35,-4%,Arbovirus inh repeat=3
Cc1cc(OC(C)C(=O)NCc2ccccn2)c2c(C)cc(=O)oc2c1 (stereo not given),-7,0.2,.,.,.,
CCCC(=O)Nc1ccc(NC(=S)NC(=O)c2ccccc2[N+](=O)[O-])cc1,-6,-5.7,-7,-29,-1%,
O=C(CCl)N(CCCNC(=O)C(F)(F)F)c1ccc([N+](=O)[O-])cc1,96,.,.,.,20%,
C/C(=N/NS(=O)(=O)c1ccc(Cl)cc1)c1cccc(NC(=O)c2ccc(Cl)cc2Cl)c1,6,12,-20,-24,.,
COc1cc(NC(=O)CSc2nc(C)c(C)c(C)n2)c(C)cc1[N+](=O)[O-],-1,-0.1,0,-8,0%,
O=C(NNC(=S)Nc1cccc(C(F)(F)F)c1)c1ccccc1Cl,7,2.6,-15,-30,4%,
CSc1nn2cc(CCN3CCOCC3)c(-c3ccc(F)cc3)nc2c1C#N,-2,-3.9,13,.,16%,
Cc1cccc(NC(=O)C(CC(C)C)NC(=O)C2CCC(C)CC2)n1 (stereo not given),-3,1.7,-1,.,-8%,
COC(=O)c1cc(NC(=O)c2ccccc2)c(=O)oc1C/C=N\OCc1ccc(Cl)cc1Cl,-12,7.3,7,-14,-11%,

# Retrieved by structure from the list above, four records:
SMILES,Mtb bLac sens,RecA intein inh,Arbovirus inh,YopH PTP inh,Mtb growth,others
CSc1nn2cc(CCN3CCOCC3)c(-c3ccc(F)cc3)nc2c1C#N,-2,-3.9,13,.,16%,
C/C(=N/NS(=O)(=O)c1ccc(Cl)cc1)c1cccc(NC(=O)c2ccc(Cl)cc2Cl)c1,6,12,-20,-24,.,
Cc1cc(OC(C)C(=O)NCc2ccccn2)c2c(C)cc(=O)oc2c1 (stereo not given),-7,0.2,.,.,.,
CN1C(=O)N(C)C(=O)C2(Cc3cc([N+](=O)[O-])ccc3N(C)C2c2ccccc2)C1=O (stereo not given),-3,0.9,21,-14,-13%,

# Compound activity from PubChem.
